Bioassay records from PubChem.
HNF4A DNA FP = change in binding of human HNF4A to DNA, primary screen, biochemical, fluorescence polarization, FITC-DNA. Hepatocyte nuclear factor 4-alpha (Homo sapiens), P41235. 1 h. activity change, % at 10 µM. 360,000 tested, 0.3% active. AID 1224865, 2016; in the data active = activity change above about 30%, passing the limit was not always enough;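 also: controls were the assay level and a saturating level of protein; the project sought stronger binding though the title names inhibitors; some compounds called inactive have numbers as strong as hits; positive values seem to mean higher polarization but the record does not say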
Target sequence (P41235 whole entry, looked up): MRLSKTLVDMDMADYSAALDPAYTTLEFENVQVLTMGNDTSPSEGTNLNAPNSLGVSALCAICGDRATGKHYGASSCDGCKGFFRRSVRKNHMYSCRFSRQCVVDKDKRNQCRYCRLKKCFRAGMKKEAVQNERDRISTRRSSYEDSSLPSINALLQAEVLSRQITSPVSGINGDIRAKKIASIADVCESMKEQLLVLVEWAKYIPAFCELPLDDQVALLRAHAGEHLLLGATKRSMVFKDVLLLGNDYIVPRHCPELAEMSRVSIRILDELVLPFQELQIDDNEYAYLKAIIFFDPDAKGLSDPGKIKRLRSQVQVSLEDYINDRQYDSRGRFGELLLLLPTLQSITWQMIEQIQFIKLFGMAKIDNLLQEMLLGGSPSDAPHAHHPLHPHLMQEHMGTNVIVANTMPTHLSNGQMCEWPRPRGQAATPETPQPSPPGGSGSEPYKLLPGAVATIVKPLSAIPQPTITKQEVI
Vif A3G = inhibitors of Vif binding to APOBEC3G peptide, primary screen, biochemical, TR-FRET, GST-Vif 1-94, biotin-A3G peptide, dose response retest (AID 1117319) | 260,000 tested, 0.57% active | inhibition, %, or IC50 in µM where a hit was titrated | TR-FRET GST-Vif / biotin-A3G peptide binding; higher % means a stronger effect; test concentration not given here; strong numbers were not always called active | Virion infectivity factor (Human immunodeficiency virus type 1 group M subtype B (isolate …;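 active = above the screen mean plus three standard deviations and confirmed in dose response; inconclusive = results disagree or hit not tested in dose response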;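 also: Vif residues 1-94 fused to GST binding biotinylated APOBEC3G peptide 110-148; 0% = full assay without inhibitor and 100% = GST in place of GST-Vif; retest series ran down from 100 µM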
ALR inh = inhibitors of human ALR sulfhydryl oxidase, primary screen, biochemical, H2O2 detection, HRP-luminol luminescence, single point; FAD-linked sulfhydryl oxidase ALR (Homo sapiens), P55789; purified ALR, DTT oxidation; inhibition, % (test concentration not listed); 290,000 tested, 3.8% active; AID 485317, 2010;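 active = mean and each replicate at 75% or more; inconclusive = only one of the two met; inactive = neither met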;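 also: stock transfer was 7.5 nL into about 7.5 µL; 0% = neutral wells and 100% = wells with inactivated enzyme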
Target sequence (P55789 whole entry, looked up): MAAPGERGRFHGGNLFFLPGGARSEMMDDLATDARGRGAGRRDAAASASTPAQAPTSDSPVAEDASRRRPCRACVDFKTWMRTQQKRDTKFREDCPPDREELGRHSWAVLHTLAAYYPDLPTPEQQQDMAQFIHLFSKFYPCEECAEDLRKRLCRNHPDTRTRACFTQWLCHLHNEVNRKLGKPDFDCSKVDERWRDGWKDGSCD
Calb FLC = C. albicans growth inhibition with fluconazole, primary screen, CaCi-2 strain, Alamar Blue fluorescence; C. albicans CaCi-2 (fluconazole-resistant clinical isolate) + fluconazole, 48 h; growth inhibition, % (concentration not given with the values); 300,000 tested, 0.57% active;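 active = most replicates above 75%; inconclusive = exactly half above 75%; inactive = most below 75%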;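 also: all wells also contain fluconazole at 8 µg/ml as a sub-toxic cotreatment; 0% = median of DMSO wells and 100% = median of geldanamycin control wells; wells of about 8 µL received 7.5 nL stock; the first replicate is given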
RanGTP-Impb inh = inhibitors of RanGTP-importin-beta interaction, primary screen, biochemical, FRET, CFP-Ran, YFP-importin-beta, homogeneous | Ran GTPase (GTP-bound) - importin-beta complex | cell-free CFP-Ran/YFP-importin-beta FRET ratio | inhibition, % (test concentration not listed) | 300,000 tested, 1.1% active | AID 2216, 2009;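 active = most replicates above 15%; inconclusive = exactly half above 15%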;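 also: 0% = DMSO wells and 100% = Ran loaded with GDP instead of GTP; wells of about 40 µL received 100 nL stock; the first replicate is given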
Beta2AR agonist = beta2AR agonists driving receptor internalization, primary screen, cell-based, FAP fluorogen, flow cytometry | response, % (test concentration not listed) | Beta-2 adrenergic receptor (Homo sapiens), P07550 | 340,000 tested, 0.43% active | Am2.2-beta2AR cells; reference of the scale not given here;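 active = response above a set limit, near 3 SD of response in nonfluorescent compounds, cut at about 42% in these data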;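 also: stock transfer was 100 nL into about 11 µL; a reference agonist was the positive control; negative values mostly stem from fluorescent compounds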
LANA-H2B inh = blockers of LANA interaction with H2A/H2B – biochemical, FP readout, HTS, primary screen; cell-free LANA-H2A/H2B peptide, fluorescence polarization; 320,000 tested, 0.6% active; AID 2629, 2010; inhibition, % (concentration not given with the values); in the data active = inhibition mostly above about 10%, no sharp cut-off; inactive = mostly below about 6.7%;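 also: stock transfer was 7.5 nL into about 10 µL; 0% = median of vehicle wells and 100% = median of positive control wells; one replicate is shown; the record names a cut of 25% in any replicate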
Numbers without * were called inactive; ? = inconclusive; / = not tested or not shown.

Molecule,HNF4A DNA FP,Vif A3G,ALR inh,Calb FLC,RanGTP-Impb inh,Beta2AR agonist,LANA-H2B inh
O=C(NCCN1CCOCC1)c1ccc(Cl)c(S(=O)(=O)N2CCCCCC2)c1,0.6,3%,-12,9,7.9,-10,7.8
O=[N+]([O-])c1ccc(N2CCNCC2)cc1NCc1cccnc1,2.7,14%,-3,-2,-0.9,-9,1.5
CCN(CC)S(=O)(=O)c1ccc(C(=O)NCc2cccs2)cc1,-4.5,4%,12,-8,-0.4,3,-1.8
COc1cccc(OCC(=O)N(C)Cc2nc(-c3ccccc3)no2)c1,-0.6,/,/,0,2.6,1,-3.9
CCOc1ccccc1C1C(C(=O)Nc2ccc(OC)cc2)=C(C)Nc2nc(CCCO)nn21 (stereo not given),-3.8,18%,-13,11,?,-14,0.2
CN1CCN(C(CNC(=O)C(=O)Nc2ccc3c(c2)OCO3)c2ccc(F)cc2)CC1 (stereo not given),-0.3,-10%,-10,-6,1.8,6,1.2
COc1ccc(Cl)cc1N(CC(=O)NCC(C)C)S(=O)(=O)c1ccc(C)c([N+](=O)[O-])c1,-1.0,/,-7,-14,-1.0,4,-2.0
Clc1ccccc1SCc1nc2ccccc2[nH]1,3.2,23%,-1,-16,-1.9,-5,0.8
C[C@H](CO)N1C[C@H](C)[C@@H](CN(C)Cc2ccc(C(=O)O)cc2)Oc2c(NC(=O)Cc3ccccc3)cccc2C1=O,3.2,/,-2,/,/,6,6.4
CC1Cc2cc(C(=O)O)ccc2O1 (stereo not given),-2.8,-3%,7,2,8.2,-1,-3.8
N#CC1=C(N)C(C#N)(C#N)[C@H](c2cccnc2)[C@H]2CN(C(=O)OCc3ccccc3)CC=C12,-1.6,0%,25,0,13,9,0.4
O=C(Cc1ccccc1[N+](=O)[O-])NCCC1=CCCCC1,0.5,-5%,-6,-7,2.5,-3,-2.9
Cc1[nH]c2ccccc2c1N=Nc1ccccc1C(=O)O,9.4,/,0,20,4.9,13,-1.3
COC(=O)c1cc2c(ccn2-c2ccc(F)cc2)n1C(C)C,-2.6,6%,/,-3,0.1,0,4.0
O=C(COc1ccc([N+](=O)[O-])cc1)NNC(=S)NC(=O)c1ccc(Br)cc1,2.4,?,/,95*,-3.4,-4,0.2
O=C(O)c1ccccc1Cc1nc2cc(Cl)ccc2c(=O)[nH]1,6.5,11%,0,1,1.3,-2,0.1
C/C(=N\Nc1cccc(C(=O)O)c1)c1ccc(Cl)s1,-14,16%,98*,78*,4.1,1,-3.7
CC(C)c1ccc(N(CC(=O)NCCCN2CCOCC2)S(=O)(=O)c2ccccc2)cc1,0.0,4%,/,/,/,-2,/
CC(C)c1ccc(C(=O)OC2CCOC2=O)cc1 (stereo not given),-6.1,/,/,1,0.2,-8,-4.6
COc1ccc(Br)cc1C(=O)Nc1cccc(NC(=O)c2ccco2)c1,2.0,1%,-8,29,-0.2,-1,-6.4
CCN1C(=O)/C(=C\N2CCCc3ccccc32)SC1=S,0.8,-7%,-2,3,9.7,-3,3.8
CC(=O)NC(Nc1c(C)n(C)n(-c2ccccc2)c1=O)C(Cl)(Cl)Cl (stereo not given),-2.5,9%,63,-8,-2.8,-8,1.4
COc1ccc(OC)c(S(=O)(=O)N2CCN(c3ccccc3OC)CC2)c1,1.4,3%,51,-1,?,1,4.0
COc1ccc(OC)c(CCNC(=O)Cn2sc3nc(C)cc(C)c3c2=O)c1,/,6%,62,-14,1.9,/,-2.8
COc1ccc(C(CNCC(=O)Nc2ccccc2F)N(C)C)cc1 (stereo not given),-0.4,67%,/,-1,?,3,0.2
CCc1ccc2c(c1)CCCN2C(=O)c1ccccc1C(=O)O,0.2,?,53,-10,-2.5,-2,0.2
COc1ccc(CNC(=O)c2cc(S(=O)(=O)N3CCCCC3)ccc2Cl)cc1OC,2.9,-6%,/,/,/,-9,-0.6
COc1ccc(C2CC(=O)Nc3cc(C)c(C)cc32)c(OC)c1OC (stereo not given),1.1,64µM*,-3,16,-1.3,-13,5.9
O=C(COc1cccnc1[N+](=O)[O-])NCc1ccc(F)cc1,-2.9,5%,-7,9,0.0,-4,-3.9
CCc1nn(C(C)C(=O)NCCN2CCN(c3cccc(C)c3C)CC2)c(=O)c2cc3occc3n12 (stereo not given),-6.7,5%,-14,-1,5.0,8,-2.3
Cn1c(CCCOc2ccc(Cl)cc2Cl)n[nH]c1=S,1.1,2%,68,12,-0.3,-1,-2.7
CCOc1ccc(-c2cc(C(=O)N/N=C/c3ccc(O)cc3)c3ccccc3n2)cc1,5.7,/,2,11,2.6,25,1.3
CC(=O)C1C(c2ccc(C)cc2)c2c(noc2C)CC1(C)O (stereo not given),-0.3,/,-2,-8,?,7,2.3
COC(=O)c1ccc2c(=O)n(Cc3ccco3)c(SCC(=O)Nc3ccccc3Cl)nc2c1,1.1,1%,3,-17,1.7,2,-0.7
CCC(C)NC(=O)CC(c1ccc(OC)cc1)n1cccc1 (stereo not given),-4.5,14%,2,-35,4.6,-4,5.5
CN(Cc1ccccc1)S(=O)(=O)c1ccc(OCC(=O)NCc2cccnc2)cc1,-0.7,/,/,-10,6.3,-5,-0.6
Cc1ccc(NC(=O)Cn2c(=O)c(C)nc3ccccc32)cc1,5.8,-2%,-6,9,0.0,7,0.1
CCc1ccc(OC(=O)CN2C(=O)c3ccccc3C2=O)cc1,-0.9,/,7,0,4.8,1,-5.4
O=C(NNC1=NCCC1)c1cccc(S(=O)(=O)N2CCCC2)c1,3.5,-6%,0,-5,-1.9,1,4.7
COc1ccccc1-n1cc(-c2ccc(Br)cc2)[nH]c1=S,1.0,-6%,1,-6,3.6,-3,0.1
Cc1nc2n[nH]c(N)c2c2c1CCCC2,-2.3,15%,21,-3,6.4,-3,-1.4
Cc1cc(OCC(=O)OCC(=O)N(C)C2CCS(=O)(=O)C2)ccc1Cl (stereo not given),-1.6,4%,/,/,/,3,/
c1ccc(-c2csc3ncn4nnnc4c23)cc1,-0.2,3%,/,22,1.9,6,-1.8
N#Cc1ccc(CSc2nnc(COc3ccccc3)n2-c2ccccc2)cc1,2.3,22%,-2,-1,1.4,-13,0.2
Cc1cccc(C(=O)NN2S(=O)(=O)c3ccccc3S2(=O)=O)c1,-1.0,5%,-7,7,2.4,-1,4.6
CCOC(CCn1c(SCc2ccc([N+](=O)[O-])cc2)nc2ccccc2c1=O)OCC,-2.9,?,-8,-7,3.0,-15,5.7
Cn1nc(C(=O)NCCc2ccc(S(N)(=O)=O)cc2)c2ccccc2c1=O,0.8,/,3,-2,-1.3,3,-1.2
Cn1nnnc1NCc1cccc(Cl)c1Cl,-3.8,-3%,-6,-1,7.9,-8,-13
O=C(CSc1nc2ccccc2s1)NCCOc1ccccc1,-4.8,/,15,11,-1.0,-7,-2.7
CCOc1ccc(N(CC(=O)NC(C)(C)C)C(=O)c2ccco2)cc1,2.8,3%,-6,-6,-0.5,-1,6.4

The results go on.
Molecule,HNF4A DNA FP,Vif A3G,ALR inh,Calb FLC,RanGTP-Impb inh,Beta2AR agonist,LANA-H2B inh
CCNC(=S)N1CCN(c2nc(-c3cccc(OC)c3)cs2)CC1,-0.8,/,13,7,-0.1,9,-3.3
CC(C)CNCC1OCc2ccccc2CO1,2.1,-4%,-1,-4,2.4,-5,2.1
CCOC(=O)C1C(c2ccc(C(=O)O)cc2)NC(=O)NC1(O)C(F)(F)F (stereo not given),-3.1,/,/,-3,-4.1,-3,-5.8
O=C(CN1C(=O)NC2(CCCCCC2)C1=O)Nc1ccccc1[N+](=O)[O-],-0.2,-7%,-13,/,/,-11,-0.9
COc1ccc(CCC(=O)Nc2cccc(S(=O)(=O)N(C)C)c2)cc1OC,0.5,/,-6,-25,5.7,0,3.5
COc1ccc(NC(=O)CSc2nnc(-c3cccnc3)n2Cc2ccco2)c(OC)c1,-0.4,17%,/,-7,-0.8,-6,/
Cc1cc(N2C(=O)C3C4CC(C(Br)C4Br)C3C2=O)no1 (stereo not given),5.3,6%,-1,24,-2.4,-3,-7.0
CC(=O)OCC=C1CCC2C3CCC4=CC(=O)CCC4(C)C3C(O)CC12C (stereo not given),1.0,2%,/,/,/,-7,/
CC(=O)OC(C)(C)C#CCN1CCCC1,1.3,-1%,0,3,?,-1,-3.7
O=C(CCN1CCCCC1)NNC(=S)NC(=O)c1ccc(Br)cc1,6.2,/,99*,-16,3.6,-3,-5.0
COc1ccc(N2CCN(CC(=O)c3ccccc3)CC2)cc1,2.2,1%,25,1,1.3,-1,-2.3
COc1cc(=O)n2c(-c3ccccc3)csc2n1,-1.3,0%,0,7,-4.2,0,5.1
COCCn1c(SCc2cccnc2)nnc1-c1c[nH]c2ccccc12,-0.3,1%,/,-4,-4.3,-12,1.5
CCOc1ccc(NC(=O)C2=C(C)C(=O)OC23CCC(C)CC3)cc1 (stereo not given),10,2%,/,-2,-2.7,16,4.5

Entries listed so far that have a Cl atom (eleven):
Molecule,HNF4A DNA FP,Vif A3G,ALR inh,Calb FLC,RanGTP-Impb inh,Beta2AR agonist,LANA-H2B inh
O=C(NCCN1CCOCC1)c1ccc(Cl)c(S(=O)(=O)N2CCCCCC2)c1,0.6,3%,-12,9,7.9,-10,7.8
COc1ccc(Cl)cc1N(CC(=O)NCC(C)C)S(=O)(=O)c1ccc(C)c([N+](=O)[O-])c1,-1.0,/,-7,-14,-1.0,4,-2.0
Clc1ccccc1SCc1nc2ccccc2[nH]1,3.2,23%,-1,-16,-1.9,-5,0.8
O=C(O)c1ccccc1Cc1nc2cc(Cl)ccc2c(=O)[nH]1,6.5,11%,0,1,1.3,-2,0.1
C/C(=N\Nc1cccc(C(=O)O)c1)c1ccc(Cl)s1,-14,16%,98*,78*,4.1,1,-3.7
CC(=O)NC(Nc1c(C)n(C)n(-c2ccccc2)c1=O)C(Cl)(Cl)Cl (stereo not given),-2.5,9%,63,-8,-2.8,-8,1.4
COc1ccc(CNC(=O)c2cc(S(=O)(=O)N3CCCCC3)ccc2Cl)cc1OC,2.9,-6%,/,/,/,-9,-0.6
Cn1c(CCCOc2ccc(Cl)cc2Cl)n[nH]c1=S,1.1,2%,68,12,-0.3,-1,-2.7
COC(=O)c1ccc2c(=O)n(Cc3ccco3)c(SCC(=O)Nc3ccccc3Cl)nc2c1,1.1,1%,3,-17,1.7,2,-0.7
Cc1cc(OCC(=O)OCC(=O)N(C)C2CCS(=O)(=O)C2)ccc1Cl (stereo not given),-1.6,4%,/,/,/,3,/
Cn1nnnc1NCc1cccc(Cl)c1Cl,-3.8,-3%,-6,-1,7.9,-8,-13

Entries listed so far that have a cyano group, in the order listed:
Molecule,HNF4A DNA FP,Vif A3G,ALR inh,Calb FLC,RanGTP-Impb inh,Beta2AR agonist,LANA-H2B inh
N#CC1=C(N)C(C#N)(C#N)[C@H](c2cccnc2)[C@H]2CN(C(=O)OCc3ccccc3)CC=C12,-1.6,0%,25,0,13,9,0.4
N#Cc1ccc(CSc2nnc(COc3ccccc3)n2-c2ccccc2)cc1,2.3,22%,-2,-1,1.4,-13,0.2
